Assay outcomes deposited in PubChem by several laboratories.
RecA intein inh: inhibitors of M. tuberculosis RecA intein splicing; 0.75% of 290,000 active; inhibition, %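 (about 9 µM by stock and volumes)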; AID 2221; cell-free RecA intein splicing, fluorescence; in the data active = inhibition above about 30%; inconclusive = no clear call, values can overlap the other calls;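 note: 0% = vehicle wells and 100% = reference inhibitor control wells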
Target sequence (P9WHJ3 whole entry, looked up): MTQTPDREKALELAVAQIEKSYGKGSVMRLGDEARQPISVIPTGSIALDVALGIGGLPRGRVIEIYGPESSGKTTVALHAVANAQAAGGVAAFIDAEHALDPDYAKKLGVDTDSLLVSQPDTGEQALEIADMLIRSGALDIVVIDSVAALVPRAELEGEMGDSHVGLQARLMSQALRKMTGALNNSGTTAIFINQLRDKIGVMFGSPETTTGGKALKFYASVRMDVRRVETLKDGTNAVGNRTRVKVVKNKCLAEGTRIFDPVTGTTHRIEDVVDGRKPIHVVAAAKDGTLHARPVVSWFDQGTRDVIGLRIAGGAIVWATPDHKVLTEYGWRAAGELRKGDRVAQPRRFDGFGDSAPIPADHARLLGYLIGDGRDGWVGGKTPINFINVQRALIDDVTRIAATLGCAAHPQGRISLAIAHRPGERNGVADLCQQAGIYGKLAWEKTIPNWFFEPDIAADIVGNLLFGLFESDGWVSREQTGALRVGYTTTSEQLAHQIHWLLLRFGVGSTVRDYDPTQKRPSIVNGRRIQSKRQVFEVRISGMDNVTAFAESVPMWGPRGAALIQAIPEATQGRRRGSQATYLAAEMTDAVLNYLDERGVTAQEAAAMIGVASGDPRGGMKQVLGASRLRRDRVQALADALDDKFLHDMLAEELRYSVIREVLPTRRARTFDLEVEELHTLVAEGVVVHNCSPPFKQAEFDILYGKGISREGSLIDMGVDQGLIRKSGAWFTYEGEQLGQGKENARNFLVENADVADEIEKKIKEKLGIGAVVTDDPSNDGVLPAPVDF
YopH inh: YopH (Yersinia) phosphatase inhibition; fluorescence Ex485/Em525; 0.16% of 140,000 active; inhibition, %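 (about 10 µM by stock and volumes)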;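 active = inhibition of 50% or more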;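 note: controls were vehicle for no effect and minimum signal wells for full effect; inactives centre near -20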
Arbovirus inh: arbovirus infection inhibition; arbovirus infection cell-based antiviral screen; inhibition, % at 10 µM; 0.37% of 200,000 active; AID 1251;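 active = inhibition from about 30%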;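 note: bluetongue infection of BSR cells; cell survival read as ATP light after 72 h; 0% = infected wells without compound and 100% = uninfected wells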
Mtb bLac sens: beta-lactam sensitization of Mtb H37Rv. M. tuberculosis H37Rv growth with meropenem, percent inhibition; hits of this screen are not shown here. 0.27% of 330,000 active. inhibition, % at 25 µM;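 active = about 74% or more and at least 40 points above the plate without the antibiotic, then above 30% in a dose series; inconclusive = first-round hits that could not be retested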;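 note: growth measured after seven days incubation then overnight dye step; 0% = bacteria only wells and 100% = bacteria with antibiotic; twin plates without the antibiotic show which effects depend on it; some results filed as inactive read as strong as hits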
Mtb growth: M. tuberculosis H37Rv growth inhibitors, H37Rv strain (AID 1626). M. tuberculosis H37Rv growth inhibition; higher % means a stronger effect. inhibition, % at 10 µM; hits with a dose series show IC50 in µM. 0.95% of 220,000 active;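 active = confirmed in a dose series; inconclusive = inhibition above 80% but not taken into the dose series; inactive = below 80% or under 30% at every dose of the series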;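 note: bacteria incubated seven days before Alamar blue readout; 0% = bacteria only wells and 100% = bacteria with antibiotic wells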
Arbovirus inh repeat: recorded beside Arbovirus inh, whose call it bears; inhibition, %; measured here: 10K subset replicate screen; many hits read low in the repeat;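 first of two repeat runs on a subset; 0% = infected and 100% = uninfected wells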
The depositor's hits bear a star; ? = inconclusive; . = no result given.

SMILES	RecA intein inh	YopH inh	Arbovirus inh	Mtb bLac sens	Mtb growth	others
CC1(C)CC(=O)c2sc(NC(=O)Cc3cccs3)nc2C1	1.9	-1	1	2	-6%
CCc1c(C(=O)NNC(=S)NCCc2ccccc2)csc1C	4.2	-33	1	-11	7%
O=C(/C=C/c1ccc(OCc2ccccc2)c(OCc2ccccc2)c1)c1cccnc1	8.3	-23	-39	6	17%
COc1ccc(OC)c(NC(=O)COc2ccc(S(=O)(=O)N3CCCC3)cc2)c1	0.7	.	.	-14	.
COc1cc(C2NC(=O)NC(O)(C(F)(F)F)C2C(=O)c2cccs2)ccc1O (stereo not drawn)	-3.4	9	11	.	-4%
CCC1CC(/C(C)=N/NC(N)=O)OC1=O (stereo not drawn)	-3.4	.	6	-8	-3%
COC(=O)c1ccc(C(=O)Nc2ccc(C(C)C)cc2N)cc1	1.3	.	-5	-1	6%
CCc1nc(Nc2cccc(F)c2)c2oc3ccccc3c2n1	2.4	.	.	-5	.
CC(C)(C)C(=O)O/N=C(\N)c1c(Cl)cccc1Cl	0.3	.	.	3	-7%
O=C1C2CC=C(Cl)CC2C(=O)N1CCC[n+]1ccccc1 (stereo not drawn)	-2.3	-28	1	11	2%
COc1ccccc1C(=O)NCCOc1ccc(C)c(C)c1	-0.5	.	.	-4	.
Cc1ccc(C)c(S(=O)(=O)N2CCN(CC(=O)NC(=O)NCc3ccccc3)CC2)c1	-0.1	-4	17	-6	-4%
COc1ccccc1NC(=O)C1=C(C)Nc2nc(-c3ccc(N(C)C)cc3)nn2C1c1ccncc1 (stereo not drawn)	.	-49	3	-6	-4%
Cc1ccc(NC(=O)c2cnc(SCC(=O)NCC3CCCO3)n(C)c2=O)cc1 (stereo not drawn)	35*	.	.	72	.
CC(C)c1ccc(N=C(N)N=C(N)N)cc1	-0.8	.	7	7	1%
CCn1cc(C(=O)NCCCN2CCC(C)CC2)c(=O)c2cc(S(=O)(=O)N3CCCC3)ccc21	-1.7	0	1	?	-6%
O=C(NCCc1ccc(Cl)cc1)c1cccs1	-2.8	.	-6	0	.
Cc1[nH]c2ccc(C(=O)N3CCCCC3)cc2c1C	0.1	.	0	12	-1%
CC(C)[C@H](NC(=O)c1ccc(Cl)c([N+](=O)[O-])c1)C(=O)NCc1ccc(Cl)cc1Cl	3.8	-29	-2	-1	8%
Cc1nn(-c2ccccc2)c(N2CCCC2)c1/C=N/NC(=O)c1cc(-c2cccs2)nc2ccccc12	1.2	-18	-5	66	58%
Nc1ncnc2c1ccn2[C@@H]1O[C@H](CO)[C@@H](O)[C@H]1O	.	.	.	-7	2.4µM*
O=C(CNC(=O)N1CC(=O)Nc2ccccc21)Nc1cc(Cl)ccc1Cl	2.9	.	.	0	.
Cc1ccc(Cl)cc1N1CCN(C(=O)C2(S(=O)(=O)c3ccc(Cl)cc3)CC2)CC1	.	-28	-8	-3	-6%
COc1ccc(C(=O)Nc2ccccc2C(=O)O)cc1NC(=O)C(c1ccccc1)c1ccccc1	24	.	.	-1	-7%
CN1CCN(S(=O)(=O)c2ccc(NC(=S)NC(=O)c3ccc(Cl)cc3)cc2)CC1	.	-8	49*	.	.

A draw from above in order of SMILES length, highest first:
SMILES	RecA intein inh	YopH inh	Arbovirus inh	Mtb bLac sens	Mtb growth	others
CC(C)[C@H](NC(=O)c1ccc(Cl)c([N+](=O)[O-])c1)C(=O)NCc1ccc(Cl)cc1Cl	3.8	-29	-2	-1	8%
O=C(/C=C/c1ccc(OCc2ccccc2)c(OCc2ccccc2)c1)c1cccnc1	8.3	-23	-39	6	17%
O=C(CNC(=O)N1CC(=O)Nc2ccccc21)Nc1cc(Cl)ccc1Cl	2.9	.	.	0	.

Other results.
SMILES	RecA intein inh	YopH inh	Arbovirus inh	Mtb bLac sens	Mtb growth	others
CCOC(=O)C1=C(N)OC2=C(C(=O)CC(C)(C)C2)C1C1CCCCC1 (stereo not drawn)	11	-53	2	2	4%	Arbovirus inh repeat=3
CCc1nnc(NC(=O)c2ccc(C)o2)s1	-0.1	.	.	0	.
CC1CN(C(=O)COC(=O)c2ccc(NC(=O)CC#N)cc2)CC(C)O1 (stereo not drawn)	-1.3	.	5	1	3%
CSc1ccc(NC(=O)/C=C/C(=O)O)cc1	-1.4	.	.	10	70%
Cc1ccc(-c2cc(-c3ccccc3)cc(-c3ccccc3)[n+]2-c2ccc(C(=O)O)cc2)cc1	-0.8	.	.	-3	.
O=C(NCCN1CCOCC1)c1cc(-c2ccc(F)cc2)on1	-1.4	-16	-9	-7	-3%
CCn1cc(C(=O)O)c(=O)c2cc(F)c(N3CCN(S(=O)(=O)c4ccc(NC(C)=O)cc4)CC3)cc21	-0.6	-24	3	90	62%
COc1ccc(C(=O)NC(=S)Nc2ccc(N3CCOCC3)cc2)cc1Cl	2.9	.	.	99	.
CC(=O)N(Cc1cccnc1)c1cccc(-c2nc3ccccc3s2)c1	2.1	.	2	1	-2%
O=C(O)COc1ccc(Br)cc1CP(=O)(c1ccccc1)c1ccccc1	0.5	.	.	-9	11%
CC(C)C1Oc2ccccc2N(CC(=O)NC2CCCCC2)C1=O (stereo not drawn)	-2.6	.	.	-6	.
CN(C)c1ccc(CN(C(=O)c2cc3ccccc3oc2=O)C2CCS(=O)(=O)C2)cc1 (stereo not drawn)	5.3	.	.	3	.
Cc1nn(-c2ccccc2)c(N)c1C(c1ccccc1)c1c(C)nn(-c2ccccc2)c1N	9.1	-17	-2	5	9%
CC(=O)Nc1ccc(S(=O)(=O)N(C)c2ccccc2)cc1	1.7	-42	-2	-6	-7%
CCN(CC)CCn1c(NCc2ccc(OC)cc2)nc2ccccc21	-0.7	-6	11	2	0%
CCC(=O)NC(=S)Nc1ccc(NC(=O)c2ccccc2[N+](=O)[O-])cc1	-2.8	-12	-11	91	15%
COCCNC(=S)N1CCCC(CO)C1 (stereo not drawn)	-1.5	.	-2	-6	0%
C[C@@H](C(=O)Nc1nc(-c2ccccn2)cs1)N1C(=O)C2CCCCC2C1=O (stereo partly drawn)	-0.7	-22	-19	75	1%
CC(=O)N(CCc1ccccc1C)Cc1cc2ccc(C)cc2[nH]c1=O	0.1	.	.	-2	.
CN(CCOc1ccccc1)c1ccc(S(=O)(=O)N2CCCCC2)cn1	-2.1	-40	10	9	2%
CC(=O)Nc1ccc(S(=O)(=O)N2CCN(C(=O)C3COc4ccccc4O3)CC2)cc1 (stereo not drawn)	2.8	.	.	?	.
CCCn1c(O)c(N=NC(=O)CNC(=O)c2cccnc2)c2ccccc21	1.8	.	.	0	.
NC(=O)[C@@H]1CCCN1Cc1nc(-c2cccs2)no1	2.6	.	2	0	1%
O=C(O)c1ccc(-c2nc(-c3ccccc3)c(-c3cccs3)[nH]2)cc1	-4.3	.	.	1	-6%
Clc1ccc(-c2noc(CN3CCN(c4ccccc4)CC3)n2)cc1	1.6	-16	7	-9	-8%

By substructure, the compounds so far with a thiophene ring, fused or not (7)
SMILES	RecA intein inh	YopH inh	Arbovirus inh	Mtb bLac sens	Mtb growth	others
CC1(C)CC(=O)c2sc(NC(=O)Cc3cccs3)nc2C1	1.9	-1	1	2	-6%
CCc1c(C(=O)NNC(=S)NCCc2ccccc2)csc1C	4.2	-33	1	-11	7%
COc1cc(C2NC(=O)NC(O)(C(F)(F)F)C2C(=O)c2cccs2)ccc1O (stereo not drawn)	-3.4	9	11	.	-4%
O=C(NCCc1ccc(Cl)cc1)c1cccs1	-2.8	.	-6	0	.
Cc1nn(-c2ccccc2)c(N2CCCC2)c1/C=N/NC(=O)c1cc(-c2cccs2)nc2ccccc12	1.2	-18	-5	66	58%
NC(=O)[C@@H]1CCCN1Cc1nc(-c2cccs2)no1	2.6	.	2	0	1%
O=C(O)c1ccc(-c2nc(-c3ccccc3)c(-c3cccs3)[nH]2)cc1	-4.3	.	.	1	-6%

New compounds follow.
SMILES	RecA intein inh	YopH inh	Arbovirus inh	Mtb bLac sens	Mtb growth	others
CN(C)S(=O)(=O)c1ccc2c(c1)Cc1cc(S(=O)(=O)N(C)C)ccc1-2	9.9	.	.	-1	.
O=C(Nc1ccc2c3c(cccc13)CC2)c1ccc(Br)o1	0.3	-22	5	50	.
O=C(COC(=O)c1ccccc1C(=O)N1CCN(c2ccccc2)CC1)Nc1ccc(F)cc1	5.5	-2	8	4	-7%
O=c1cc(Cc2nnc(SCc3ccccc3)n2-c2ccc(Cl)cc2)[nH]c(=O)[nH]1	0.9	.	1	-9	-2%
Cc1ccccc1CSCCNC(=O)Nc1ccccc1	2.5	.	-11	-3	-1%
CC(=O)c1ccc(N2CCN(C(=O)c3ccc(Cl)c(NC4=NC5CS(=O)(=O)CC5S4)c3)CC2)cc1 (stereo not drawn)	-1.3	.	.	-3	.
CC(NC(=O)c1ccco1)C(c1cccs1)N1CCN(c2ccccc2)CC1 (stereo not drawn)	14	-34	2	-3	-1%	Arbovirus inh repeat=3
Cn1c(=NC(=O)C2=NNC(=O)CC2)sc2ccccc21	0.4	.	2	-10	0%
CN(CC(=O)NCc1ccccc1)Cc1ccc(Cl)cc1	2.5	.	.	3	.
O=C(NCc1ccccc1)C1=C[C@H](c2csc3ccccc23)C[C@H](OCc2ccc(CO)cc2)O1	8.6	.	.	19	-3%
CCOC(=O)N1CCC(NC(=O)c2cnn3c(C(F)(F)F)cc(-c4cccc(OC)c4)nc23)CC1	.	.	.	11	9%
CCOc1ccccc1Nc1nnc(SC(C)C(=O)Nc2nc(-c3ccccc3)cs2)s1 (stereo not drawn)	-8.9	-29	3	9	4%
CCN(CC)S(=O)(=O)c1ccc(N2CCOCC2)c(NC(=O)c2ccc3c(c2)OCCO3)c1	1.7	.	.	-13	.
O=C(O)C1CCC(N2C(=O)C3C4CCC(C4)C3C2=O)CC1 (stereo not drawn)	0.8	.	1	-3	-5%
CCOC(=O)C1CCN(C(=O)C2(NC(=O)Nc3ccccc3C)CCCCC2)CC1	-1.3	.	.	5	.
CCOc1ccc(NC(=O)C(NC(=O)C2CCC(C)CC2)C(C)C)cc1 (stereo not drawn)	2.3	.	-4	40	38%
COc1ccccc1-c1nnc2sc(C3CCCCC3)nn12	.	-17	5	16	1%
CCOc1ccc(C(C)=O)cc1COC(=O)CNC(=O)c1cccs1	-0.4	.	.	-2	.
COc1ccc(CC(CC(=O)O)C(=O)NCc2ccccc2)cc1 (stereo not drawn)	1.8	.	-2	-3	-3%
COCCn1c(C)cc(C(=O)COC(=O)c2ccc([N+](=O)[O-])o2)c1C	0.8	.	2	100	15%
O=C(CCn1c(=S)[nH]c2ccccc2c1=O)NCCc1ccccc1	1.2	.	-11	0	4%
c1coc(CNc2nc(-c3cccs3)cs2)c1	6.5	.	19	4	5%
O=C(c1ccc2c(=O)n(Cc3ccc4c(c3)OCO4)c(=S)[nH]c2c1)N1CCC2(CC1)OCCO2	0.0	-25	1	1	2%

A portion of the library; the hit share may differ from the screen's.
